Screening results from PubChem.
Bead autofluor: compound fluorescence in toxin protease inhibitor counterscreen | fluorescence intensity (no concentration beside the values) | 3.1% of 360,000 active | compound autofluorescence counterscreen, microsphere flow cytometry; hits give high values;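 active = at least 3 SD above the mean of all compounds, about 16000 in these data; inconclusive = too few beads counted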;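 also: 100 nL of 1 mM stock went into each well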
ugtP null kill: growth inhibition of S. aureus ugtP deletion strain; S. aureus RN4220 ugtP deletion, OD600 growth, 16 h; some inactives read as strong as hits; AID 1259309; growth inhibition, % (test concentration not listed); 0.54% of 330,000 active;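 active = z-score under -3 and OD600 up to 0.15 on both plates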;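 also: plate controls were untreated wells for no effect and antibiotic for full effect; wells of about 80 µL received 100 nL stock; the first replicate is given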
Mtb hypoxia rep: inhibitors of hypoxia-regulated fluorescent reporter in Mycobacterium tuberculosis; fluorescence inhibition, % (concentration not given with the values); 0.1% of 300,000 active; AID 1159583; M. tuberculosis hypoxia-regulated fluorescent reporter, fluorescence;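 active = 35 to 45% if threefold the growth effect, above 45% if 1.5-fold the growth effect; inactive = the rest, general growth blockers included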;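 also: wells of about 50 µL received 100 nL stock; 0% = vehicle wells and 100% = reference inhibitor wells; whole bacteria with a GFP reporter of the hypoxia response; strong numbers were not always called active; many hits fall short of the cut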
PrP 5UTR inh: inhibition of PrP 5' UTR reporter expression. cell-based PrP 5' UTR mRNA reporter, plate reader. inhibition, % (no concentration beside the values). 0.35% of 340,000 active. AID 488862;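 active = every replicate at 50% or more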;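 also: 0 = median of the neutral control wells; tested in H4 reporter cells; numbers are from one replicate; inactives centre near -14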
BJeLR viability: kills HRASV12-expressing BJeLR cells. BJeLR (HRASV12) viability, CellTiter-Glo ATP luminescence, 48 h; reference of the scale not given here. inhibition, % (concentration not given with the values). 0.17% of 300,000 active;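 active = replicate mean above 50%; inconclusive = above 50% but judged a plate artefact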;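 also: 50 nL library stock added to about 25 µL; numbers are from one replicate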
Sa RN4220 lethal: kills Staphylococcus aureus RN4220; S. aureus RN4220 growth, OD600, 16 h; inhibition, % (no concentration beside the values); 0.33% of 330,000 active;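 active = z-score of -3 or lower and OD600 up to 0.18 on both plates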;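 also: plate controls were untreated cells for no effect and reference antibiotic for full effect; stock transfer was 100 nL into about 80 µL; one replicate is shown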
Mtb hypoxia rep growth: further read-out of Mtb hypoxia rep, marked with its call; growth inhibition, %; measured here: M. tuberculosis growth (absorbance);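 0% = vehicle and 100% = reference antibiotic; read after six days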
Active calls of the source: *; ? = inconclusive; nt = not tested or not shown.

SMILES | Bead autofluor | ugtP null kill | Mtb hypoxia rep | Mtb hypoxia rep growth | PrP 5UTR inh | BJeLR viability | Sa RN4220 lethal
Cc1c(C(=O)N2CCN(C)CC2)oc2ccc(Br)cc12 | 3090 | 9 | 12 | 4 | -37 | 3 | -0.4
Cc1c(NC(=S)NC(=O)c2ccccc2Cl)c(=O)n(-c2ccccc2)n1C | 3748 | 4 | 11 | 13 | -21 | 0 | 2.6
Cc1noc(/C=C/N(C)C)c1S(=O)(=O)N1CCCC(C(=O)N2CCc3ccccc32)C1 (stereo not drawn) | 6000 | -6 | -1 | -2 | -20 | nt | -15
CCC(=O)Nc1cc(C(=O)O)ccc1S(=O)(=O)c1ccc(C)cc1 | 9872 | 3 | -1 | -8 | -16 | -1 | 4.0
Nc1nc(SCC(=O)N2CCCCC2)[nH]c(=O)c1NC(=O)c1cccs1 | 3905 | 5 | 7 | 9 | -12 | 0 | 4.5
FC(F)Oc1ccc(NC(=S)NN2CCOCC2)cc1 | 6994 | 13 | 0 | 3 | -7 | -17 | 8.3
Cc1c(Cl)c(C(=O)N2CCCCCC2)nn1C | 4972 | 3 | 5 | 7 | -21 | 9 | -1.5
COc1ccc(C(=O)NN=Cc2ccc(OC)c(COc3ccccc3)c2)cc1 | nt | -12 | 0 | 5 | nt | nt | 1.1
O=C(CCn1c(=O)oc2ccccc21)Nc1ccc(C(=O)O)cc1 | 3701 | 11 | -1 | -2 | -20 | -9 | -1.2
C/C(=C\c1ccc(F)cc1)C(=O)c1c(C)cc(C)[nH]c1=O | 3076 | 13 | 7 | 3 | -6 | 13 | 2.0
C=CCOc1ccc(C2NC(=S)NC(C)=C2C(=O)c2ccccc2)cc1OC (stereo not drawn) | 6579 | -5 | -1 | -4 | -4 | -2 | 5.3
O=C1NC2=C(CCc3ccccc32)C(c2ccc(Br)cc2)N1 (stereo not drawn) | 5889 | -19 | 1 | 8 | -23 | nt | 2.7
Cc1ccc(NC(=O)C(C)Oc2ccccc2)cc1S(=O)(=O)N1CCCCCC1 (stereo not drawn) | 3132 | -2 | -3 | 0 | -14 | nt | 4.4
Cc1onc(-c2ccccc2)c1C(=O)Nc1nnc(C(C)(C)C)s1 | 5717 | 8 | -12 | -2 | -22 | -18 | 7.8
Cc1ccc(-c2noc(CCC(N)=O)n2)cc1 | ? | -6 | 11 | 14 | -33 | -4 | 6.4
Cc1cc(Oc2ccc(N)cn2)ccc1Cl | 4656 | 1 | 17 | 10 | -12 | -4 | 6.8
O=C(Nc1nccs1)OCc1ccccc1 | nt | 6 | 9 | -8 | nt | 3 | 3.6
Cc1cc(N2CCN(C)CC2)nc2ccc(NC(=O)CCC(=O)NCCC(C)C)cc12 | 4240 | -2 | 17 | 14 | -41 | 6 | 8.6
Cc1ccc(O)c(C=Nc2ccc3[nH]ncc3c2)c1 | 2136 | 11 | 5 | 5 | -67 | -2 | 3.6
Cc1cccc(NC(=O)Cn2cc(C(=O)C3CC3)c3ccccc32)c1 | 5469 | -6 | 9 | 6 | -11 | -2 | 1.0
Cc1ncoc1C(=O)N1CCCC(C(=O)c2cccc(OC(C)C)c2)C1 (stereo not drawn) | 5054 | 4 | 9 | 0 | -3 | -4 | 0.9
Cc1c(Nc2ncccc2C(=O)O)cccc1C(F)(F)F | 5277 | -7 | 13 | 5 | -36 | 1 | 18
C=CCN(c1ccccc1)S(=O)(=O)c1cccc(C(=O)NC2CCN(Cc3ccccc3)CC2)c1 | 6727 | 4 | 7 | 2 | -25 | 3 | 7.7
COc1ccc(C=NNC(=O)NC23CC4CC(CC(C4)C2)C3)c(OC)c1 | nt | -5 | 5 | -3 | nt | nt | 5.0

Overlap with the part before: 4 compounds; new compounds follow.
SMILES | Bead autofluor | ugtP null kill | Mtb hypoxia rep | Mtb hypoxia rep growth | PrP 5UTR inh | BJeLR viability | Sa RN4220 lethal
Cc1ncoc1C(=O)N1CCCC(C(=O)c2cccc(OC(C)C)c2)C1 (stereo not drawn) | 5054 | 4 | 9 | 0 | -3 | -4 | 0.9
Cc1c(Nc2ncccc2C(=O)O)cccc1C(F)(F)F | 5277 | -7 | 13 | 5 | -36 | 1 | 18
C=CCN(c1ccccc1)S(=O)(=O)c1cccc(C(=O)NC2CCN(Cc3ccccc3)CC2)c1 | 6727 | 4 | 7 | 2 | -25 | 3 | 7.7
COc1ccc(C=NNC(=O)NC23CC4CC(CC(C4)C2)C3)c(OC)c1 | nt | -5 | 5 | -3 | nt | nt | 5.0
CSc1ccccc1NC(=S)Nc1ccc(S(N)(=O)=O)cc1 | 2630 | 5 | 8 | 3 | -33 | 8 | 6.5
CCOc1cc(C(=O)OCC(=O)c2c(N)n(C)c(=O)n(C)c2=O)cc(OCC)c1OCC | 22161* | 0 | -8 | 9 | -81 | 2 | 0.8
COC(=O)C1=C(C)N(CC2CC2)C(=NCc2cccc(Cl)c2)NC1c1ccccc1 (stereo not drawn) | nt | -5 | -4 | 16 | nt | nt | -0.6
CC1CCN(c2ccc(S(=O)(=O)Nc3cc(C(=O)O)cc(C(=O)O)c3)cc2[N+](=O)[O-])CC1 | nt | -3 | 12 | 0 | nt | 0 | 4.1
O=C(Nc1nccs1)c1cc(S(=O)(=O)N2CCOCC2)ccc1Cl | 3874 | 6 | nt | nt | 3 | 21 | 0.2
Nc1nc(SCC(=O)Nc2ccc(Oc3ccccc3)cc2)n[nH]1 | 2704 | 58 | 0 | 3 | -21 | 9 | 1.5
O=C(Nc1ccccc1C(=O)O)c1cncc(Br)c1 | 10492 | 8 | 16 | 1 | -14 | 7 | 7.9
Cc1cccc(C)c1Nc1nnc(SCc2nc3ccccc3c(=O)[nH]2)s1 | 2077 | -1 | 0 | 1 | -16 | -8 | 6.4
COC(=O)[C@@H]1C[C@@]2(O)[C@H](O)[C@H](O)[C@H](O)C[C@H]2N1CC1CC1 | 2996 | nt | nt | nt | -1 | 2 | nt
O=C(CSc1ccc(Cl)cc1)Nc1ccccc1N1CCN(C(=O)c2ccccc2)CC1 | 3069 | -2 | 7 | 2 | 2 | 8 | -9.7
CC1CCC(NS(=O)(=O)c2ccc(N3CCCC3=O)cc2)CC1 (stereo not drawn) | nt | -2 | 15 | 5 | -22 | 4 | 3.2
Cc1cc(C)c(C(=O)CC2(O)C(=O)Nc3ccccc32)cc1C (stereo not drawn) | 3020 | -3 | 16 | 5 | -55 | -2 | 0.0
COc1ccc(CCN(C)C(=O)c2ccc3c(=O)n4c(nc3c2)CCCCC4)cc1OC | nt | 4 | 8 | 8 | nt | nt | 6.0
CC1C=C[C@](Cc2ccccc2)(C(=O)NCC2CC2)N1C(=O)c1ccccc1 (stereo partly drawn) | nt | -3 | 3 | 0 | nt | nt | 3.3
Cc1nnc(C)n1N=Cc1ccc(O)cc1 | nt | -4 | -13 | -1 | nt | nt | 3.8
O=C(CN1CCC(NC(=O)c2ccc(F)cc2)CC1)NCc1ccccc1F | 17206* | -3 | 5 | 10 | -14 | 4 | 3.3
O=C(Cc1ccsc1)N1CCN(S(=O)(=O)c2ccccc2F)CC1 | 6561 | 5 | 10 | 7 | -10 | nt | -0.5
Cc1ccc(-n2c(SCC(N)=O)nnc2-c2ccc(S(=O)(=O)N3CCCCC3)cc2)c(C)c1 | 16453* | -5 | -1 | 3 | 7 | -3 | 0.1
COc1ccc(C=NNC(=O)c2ccoc2C)cc1OC | nt | 4 | 15 | 9 | nt | nt | -2.2
Nc1ccc(C(=O)N/N=C\c2ccc(OC(=O)c3ccccc3Cl)cc2)cc1 | 3649 | nt | nt | nt | -21 | 9 | nt
Cc1ccc2nc(SCC(=O)Nc3cc(C)on3)nc(=O)n2c1 | 5974 | 2 | 10 | 3 | -26 | -3 | 2.3
Cc1cc(CN(C)C(=O)CC2C(=O)NCCN2Cc2ccc(F)c(F)c2)on1 (stereo not drawn) | 4006 | 4 | -1 | 0 | -1 | 5 | 8.1
O=C(NCCOc1ccccc1-c1ccccc1)c1ccco1 | 4290 | 0 | 12 | 7 | -20 | 1 | 7.1
C=CCNC(=S)NNC(=O)CC12CC3CC(CC(C3)C1)C2 | 3444 | -2 | nt | nt | -12 | 0 | 5.3
CC[C@H](C)[C@@H](C(=O)N1CCNCC1)n1cc([C@@H](N)CO)nn1 | 3778 | nt | nt | nt | -24 | -5 | nt
Cc1cc(O)c2c(-c3ccccc3)cc(=O)oc2c1 | 4361 | -13 | 13 | 7 | -28 | nt | 1.2
O=C1c2ccccc2C2(c3ccc(Cl)cc3)NCCN12 (stereo not drawn) | 4027 | 4 | nt | nt | -6 | 29 | 0.5
CN(N)C(=S)Nc1ccc(Cl)cc1 | 3869 | 1 | 4 | -4 | 4 | 7 | -1.1
Cc1nc2ccccc2c2oc(C(=O)NCCCN3CC(C)CC(C)C3)cc12 (stereo not drawn) | 3907 | 11 | 9 | -1 | 5 | 10 | 3.4
CCCc1cc2c(cc1NS(=O)(=O)c1ccc(CCNC(C)=O)cc1)OCO2 | 5245 | 3 | 1 | 10 | -21 | -6 | 10
Nc1ccc(C(=O)N2CCN(S(=O)(=O)c3ccc(Cl)cc3)CC2)cc1[N+](=O)[O-] | 6409 | -2 | -9 | 1 | -20 | 4 | -4.1
CC1CCCCN1C(=O)CSc1nc2ccsc2c(=O)n1Cc1ccccn1 (stereo not drawn) | 19850* | 5 | 4 | 0 | -66 | 6 | -0.1
Nc1nn(-c2ccccc2)c(N)c1N=Nc1ccccc1F | 1995 | -10 | 9 | 17 | -115 | 5 | 24
O=C(Nc1ccc(Br)c2cccnc12)c1ccc(Cn2cc([N+](=O)[O-])cn2)o1 | 5845 | 10 | 13 | 0 | -42 | 3 | -10
CC(=O)C1=C(O)C(=O)N(Cc2cccnc2)C1c1ccc(O)cc1 (stereo not drawn) | 2732 | 8 | 3 | 2 | 0 | -12 | 0.6
Cc1cc(NC(=O)CSc2nc(N)c(NC(=O)c3ccccc3F)c(=O)[nH]2)no1 | ? | 0 | 2 | 4 | -16 | 15 | 2.8
Cc1ccc(C)c(N2CCN(C(=O)c3ccc(CSc4nc5ccncc5[nH]4)cc3)CC2)c1 | 6368 | -3 | nt | nt | -49 | -2 | 1.2
C/C(Nc1ccc(C)cc1)=C(/C#N)C(N)=O | 10118 | 3 | -2 | 2 | -22 | -1 | 4.0
CCCCc1c(O)nc(SC2CC(=O)N(c3ccc(C(=O)OCC)cc3)C2=O)[nH]c1=O (stereo not drawn) | 4123 | -4 | -7 | -9 | -41 | 14 | -2.9
COc1ccc(/C=C/C=C2\N=C(SC)SC2=O)cc1 | 2502 | 3 | -1 | 10 | -9 | 0 | -0.2
COc1cccc(OCC(=O)NNC(=O)CCc2ccccc2)c1 | 4235 | 7 | 8 | 3 | -18 | 7 | 5.2
COc1ccc(C(C)(C)NC(=O)C2CCC(=O)N(C3CC3)C2)cc1OC (stereo not drawn) | 4583 | 1 | -7 | 3 | -25 | -8 | 1.1
O=S(=O)(NCc1ccc2c(c1)OCO2)c1ccc(F)cc1 | 3274 | 2 | 14 | 7 | -3 | 8 | 4.6
COc1ccc(OC)c(NC(=O)c2cccc3c2C(=O)N(C2CCCCC2)C3)c1 | 5466 | 1 | 9 | 1 | 6 | 4 | 2.3
COC(=O)c1cccc(N2C(=O)C3C4C=CC(CC4)C3C2=O)c1 (stereo not drawn) | 3240 | 7 | 15 | 0 | -27 | 4 | 3.0
COC(=O)C1=C(c2ccccc2)CC2CCC1N2C(=O)N1CCCC1 (stereo not drawn) | nt | 2 | -1 | 5 | nt | nt | 4.2
Cc1cccc(CN2C(=O)c3ccccc3Sc3ccc(C(=O)NCCN4CCOCC4)cc32)c1 | 4812 | -3 | 7 | 4 | -7 | -24 | 0.8
O=C(CCCn1c(=S)[nH]c2ccccc2c1=O)NC1CCCCC1 | 4233 | -8 | -4 | 1 | -10 | -7 | -1.4
CC(=O)Nc1ccc(NC(=O)C(C)OC(=O)CCSc2ccccc2Cl)cc1 (stereo not drawn) | 3062 | -4 | 9 | 2 | -3 | nt | 2.9
NC1=NC(=O)CC(C(=O)NCCc2ccccc2)S1 (stereo not drawn) | 2858 | 5 | 4 | 7 | -10 | -9 | 5.1
Cc1ccc(OCCN2CCCC2)cc1 | 3187 | 11 | 4 | 3 | -20 | 1 | 3.7
COC(=O)CC1C(=O)NCCN1C(=O)NC1CCCCC1 (stereo not drawn) | 3585 | 9 | nt | nt | -23 | 1 | 1.0
